N370S GC mod = inhibitors or activators of N370S glucocerebrosidase for Gaucher disease | hit rate 0.092% among 330,000 | AID 2101 | P04062 | N370S GC spleen homogenate, 4MU-glucoside fluorescence | Potency, µM (titrated, usually from 59.4 µM), for inactives: top-dose activity change, negative = inhibition, actives largely listed as inhibitors;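 note: 0% = full enzyme activity and -100% = no enzyme basal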
GCN5L2 inh = GCN5L2 (KAT2A) acetyltransferase inhibition; hit rate 0.21% among 390,000; GCN5L2 HAT assay, ThioGlo1 CoA-SH fluorescence; Q92830; Potency, µM (doses to about 58.9 µM), without a hit: at the highest dose activity change, negative = inhibition, hits mostly inhibitors
Target sequence (Q92830 whole entry, looked up): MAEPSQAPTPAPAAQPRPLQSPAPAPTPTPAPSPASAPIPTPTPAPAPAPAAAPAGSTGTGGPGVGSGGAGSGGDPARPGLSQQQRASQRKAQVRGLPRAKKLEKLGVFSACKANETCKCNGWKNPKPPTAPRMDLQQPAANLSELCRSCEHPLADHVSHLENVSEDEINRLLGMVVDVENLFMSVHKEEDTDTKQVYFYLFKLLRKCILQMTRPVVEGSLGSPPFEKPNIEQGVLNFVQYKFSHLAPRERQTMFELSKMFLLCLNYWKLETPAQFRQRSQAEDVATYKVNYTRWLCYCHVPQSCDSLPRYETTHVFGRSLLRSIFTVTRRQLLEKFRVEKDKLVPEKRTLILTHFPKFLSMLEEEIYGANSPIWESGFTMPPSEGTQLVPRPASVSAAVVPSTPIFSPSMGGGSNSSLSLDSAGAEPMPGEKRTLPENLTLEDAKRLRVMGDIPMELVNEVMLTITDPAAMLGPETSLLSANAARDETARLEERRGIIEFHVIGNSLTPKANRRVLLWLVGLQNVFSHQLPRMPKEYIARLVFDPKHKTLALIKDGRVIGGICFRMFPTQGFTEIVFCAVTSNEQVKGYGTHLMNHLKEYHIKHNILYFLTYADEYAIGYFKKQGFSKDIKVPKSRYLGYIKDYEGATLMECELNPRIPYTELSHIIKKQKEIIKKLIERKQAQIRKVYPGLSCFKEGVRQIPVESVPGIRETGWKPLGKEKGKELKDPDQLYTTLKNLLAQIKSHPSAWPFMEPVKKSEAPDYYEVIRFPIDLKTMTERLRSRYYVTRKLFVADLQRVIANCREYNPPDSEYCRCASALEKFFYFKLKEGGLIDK
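Compounds, pin-transferred from DMSO stocks, meet 20nM GCN5L2 for 15 min before the reaction begins with H3(1-25) peptide (75uM) and acetyl-CoA (70uM). Thiol-reactive ThioGlo1 reports CoA release over 20 min at room temperature.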
The depositor's hits bear a star; ? = inconclusive; . = no result given. Calls come from the whole dose curve; as a rule, active = well fitted curve in the direction sought with a large enough effect; inconclusive = small, poorly fitted or top-dose-only effect, or another doubt; inactive = no such curve, though single readings can be large; an effect the other way counts as inactive or inconclusive. Unless noted, % is set by controls: 0 for no effect and ±100 for the full control effect; potency is the fitted concentration of half-maximal effect. An excerpt; most or all hits stand in other tables.

(1) COc1ccc(C(=O)NC(C)c2ccc(-n3ccnc3)cc2)cc1S(=O)(=O)N1CCOCC1 (stereo not drawn)
(2) COc1ccccc1N(C(=O)c1ccco1)C(C(=O)NC1CCCC1)c1cccs1 (stereo not drawn)
(3) CC(=O)c1ccc(OCCCC(=O)OCc2nnc(-c3ccc(Cl)cc3)o2)cc1
(4) COc1ccc(CC(=O)N/N=C(\C)c2cccnc2)cc1OC
(5) O=C(COC(=O)c1cc(Br)ccc1O)NNC(=O)c1ccc(Cl)cc1
(6) CC1=NN(c2ccccc2)C(=O)/C1=C/C=C/C=C/N(C)C

assay / entry,1,2,3,4,5,6
N370S GC mod,-2%,3%,-24%,-8%,3%,-6%
GCN5L2 inh,2%,3%,-3%,1%,-4%,-17%

(7) CC1=C(C(=O)OC2CCCCC2)C(c2cccnc2)n2nnnc2N1 (stereo not drawn)
(8) CC(=O)c1ccc(OCc2cc(C(=O)N3CCOCC3)no2)cc1
(9) CN(Cc1ccc(F)cc1)C(=O)c1cccc(NS(=O)(=O)c2ccccc2)c1
(10) NC(=O)c1sc2nc3c(c(-c4ccco4)c2c1N)CCCC3
(11) COc1ccccc1CN1CCC(n2nccc2NC(=O)c2ccccc2Cl)CC1
(12) CCCCN(CC)CCCNC(=O)Cn1ncc2c3ccccc3n(Cc3ccc(F)cc3)c2c1=O

assay / entry,7,8,9,10,11,12
N370S GC mod,-10%,-24%,-6%,1%,-2%,.
GCN5L2 inh,-4%,-6%,-3%,-6%,-1%,1%

(13) O=C(Nc1ccc(Cl)c(S(=O)(=O)N2CCOCC2)c1)C1CCCC1
(14) Cc1ccc(-c2nc(C#N)c(NCCc3ccccn3)o2)cc1
(15) CC(C)C(=O)Nc1cccc(C(=O)Nc2nncs2)c1
(16) COc1ccc(CCNC(=O)c2cc(Cl)nc3ccccc23)cc1
(17) O=C(CSc1nnc(-c2ccco2)n1-c1ccccc1Cl)Nc1cccc(C(=O)O)c1
(18) CCOC(=O)N1CCC(Nc2nc3ccccc3nc2NS(=O)(=O)c2ccc(Cl)cc2)CC1

assay / entry,13,14,15,16,17,18
N370S GC mod,.,1%,6%,-2%,-11%,12%
GCN5L2 inh,-4%,-12%,-3%,-2%,-23%,-15%

(19) COC(c1ccccc1)c1nnc(CCC(=O)N(C)CCOc2ccccc2)o1 (stereo not drawn)
(20) CC(C)NS(=O)(=O)c1ccc(NC(=O)c2cccnc2)cc1
(21) Cn1c(SCC(=O)Nc2sc3c(c2C#N)CCC3)nnc1C1COc2ccccc2O1 (stereo not drawn)
(22) Cc1onc(-c2ccccc2)c1C(=O)N=C(N)c1ccc(C(F)(F)F)cc1
(23) CC(=O)Nc1ccc(S(=O)(=O)NCC(=O)OCC(=O)NCc2ccc3c(c2)OCO3)cc1
(24) O=C(O)c1ccc(C2NCC(c3ccccc3Cl)c3c2[nH]c2ccccc32)cc1 (stereo not drawn)

assay / entry,19,20,21,22,23,24
N370S GC mod,0%,-7%,6%,-12%,.,-7%
GCN5L2 inh,-2%,0%,-7%,-2%,0%,17%

(25) Cc1csc(NC(=O)CSc2nncc(=O)n2N)n1
(26) C=CCC1(N(C(C)=O)c2ccccc2)CCCCC1
(27) C/C(=N\NC(=O)c1cc(C)oc1C)c1ccc(N2CCOCC2)cc1
(28) O=C(NC1CCCCCCC1)NC1CCCCC1
(29) Fc1cc(F)cc(NC(=S)NCCCN2CCOCC2)c1
(30) Cn1nc(C(=O)NCc2cccc(Cl)c2)c2c1-c1ccccc1SC2

assay / entry,25,26,27,28,29,30
N370S GC mod,-2%,3%,-5%,5%,-10%,.
GCN5L2 inh,1%,13%,-7%,?,1%,-5%

(31) O=C(c1ccc(COc2ccccc2[N+](=O)[O-])o1)N1CCCCC1
(32) N#CC(c1ccc(Cl)nn1)c1c(F)cccc1Cl (stereo not drawn)
(33) O=C(N/C=N/OCc1ccc(Cl)cc1Cl)NOCc1ncc(C(F)(F)F)cc1Cl
(34) CC(C)Cc1nnc(NC(=O)CCC(=O)N2CCOCC2)s1
(35) CC(CCc1ccccc1)NC(=O)CCNS(=O)(=O)c1ccccc1C(F)(F)F (stereo not drawn)
(36) CCCCNC(=O)CCn1nc(-c2ccccc2)ccc1=O

assay / entry,31,32,33,34,35,36
N370S GC mod,12%,2%,?,-1%,.,0%
GCN5L2 inh,-13%,-6%,-18%,0%,-5%,1%

(37) COC(=O)CSc1ccc(S(=O)(=O)N2CCC(C)CC2)cc1[N+](=O)[O-]
(38) Cc1onc(-c2ccccc2Cl)c1C(=O)Nc1ccccc1
(39) Cc1nn(C)cc1CNC(=O)Nc1ccc(Br)cc1Cl
(40) COc1ccc(-c2csc3nc(C)nc(N4CCC(C)CC4)c23)cc1OC
(41) CCOc1ccccc1NC(=O)c1cccc(NC(=O)C(C)C)c1
(42) COc1ccc(NS(=O)(=O)c2cc(NC(=O)/C=C/c3ccccc3OC)ccc2N2CCCCC2)cc1

assay / entry,37,38,39,40,41,42
N370S GC mod,-8%,-7%,-7%,1%,-6%,-10%
GCN5L2 inh,0%,-10%,0%,-9%,-8%,-7%

Looked up above.
GCN5L2 inh, compound 8 → -6%
N370S GC mod, compound 15 → 6%

More compounds:
(43) CC(=O)N1C(C(=O)O)Cc2c([nH]c3ccccc23)C1C (stereo not drawn)
(44) COc1ccc(NC(=O)c2cc(C)nc3ccccc23)c(OC)c1
(45) O=S(=O)(/C=C/c1ccccc1)N1CCc2ccccc2C1
(46) CC(=O)c1cccc(S(=O)(=O)N(CCCO)Cc2cc3ccc(C)cc3[nH]c2=O)c1
(47) CCOc1cc(C(=O)NCc2nnc(SCC(=O)OC)n2C)cc(OCC)c1OCC
(48) O=[n+]1c2c(n([O-])c3cc(F)c(N4CCCC4)cc31)CCCC2

assay / entry,43,44,45,46,47,48
N370S GC mod,?,-2%,-11%,20%,4%,0%
GCN5L2 inh,-5%,-2%,6%,-5%,?,-6%

(49) Cc1ccc(NC(=O)CC2SC(=NCC3CCCO3)NC2=O)cc1Cl (stereo not drawn)
(50) CCOC(=O)C1C(c2cccs2)NC(=O)N(C)C1(O)C(F)(F)F (stereo not drawn)
(51) O=C1/C(=C/c2cccnc2)SC(=S)N1CCc1ccccc1
(52) CC1(C)OC(c2ccccc2)=C/C(=C\C=N\NC(=O)c2ccncc2)O1
(53) Cc1cc(N2CCN(c3ncccn3)CC2)nc2c(C)cccc12
(54) COc1ccc(/C=C(\CC(=O)O)c2nc3ccccc3s2)cc1O

assay / entry,49,50,51,52,53,54
N370S GC mod,0%,1%,2%,-11%,0%,-14%
GCN5L2 inh,27%,-5%,2%,-8%,-8%,-9%

An excerpt of these results, with two lines to a compound.
Every second line gives: N370S GC mod | GCN5L2 inh
40) COc1ccc(-c2csc3nc(C)nc(N4CCC(C)CC4)c23)cc1OC
→ 1% | -9%
41) CCOc1ccccc1NC(=O)c1cccc(NC(=O)C(C)C)c1
→ -6% | -8%
42) COc1ccc(NS(=O)(=O)c2cc(NC(=O)/C=C/c3ccccc3OC)ccc2N2CCCCC2)cc1
→ -10% | -7%
43) CC(=O)N1C(C(=O)O)Cc2c([nH]c3ccccc23)C1C (stereo not drawn)
→ ? | -5%
44) COc1ccc(NC(=O)c2cc(C)nc3ccccc23)c(OC)c1
→ -2% | -2%
45) O=S(=O)(/C=C/c1ccccc1)N1CCc2ccccc2C1
→ -11% | 6%
46) CC(=O)c1cccc(S(=O)(=O)N(CCCO)Cc2cc3ccc(C)cc3[nH]c2=O)c1
→ 20% | -5%
47) CCOc1cc(C(=O)NCc2nnc(SCC(=O)OC)n2C)cc(OCC)c1OCC
→ 4% | ?
48) O=[n+]1c2c(n([O-])c3cc(F)c(N4CCCC4)cc31)CCCC2
→ 0% | -6%
49) Cc1ccc(NC(=O)CC2SC(=NCC3CCCO3)NC2=O)cc1Cl (stereo not drawn)
→ 0% | 27%
50) CCOC(=O)C1C(c2cccs2)NC(=O)N(C)C1(O)C(F)(F)F (stereo not drawn)
→ 1% | -5%
51) O=C1/C(=C/c2cccnc2)SC(=S)N1CCc1ccccc1
→ 2% | 2%
52) CC1(C)OC(c2ccccc2)=C/C(=C\C=N\NC(=O)c2ccncc2)O1
→ -11% | -8%
53) Cc1cc(N2CCN(c3ncccn3)CC2)nc2c(C)cccc12
→ 0% | -8%
54) COc1ccc(/C=C(\CC(=O)O)c2nc3ccccc3s2)cc1O
→ -14% | -9%

Additional entries
(55) COc1ccc(OC)c(NC(=O)CSC2=NCCS2)c1
(56) COc1ccccc1NC(=O)Cn1nnc(C(=O)Nc2ccccc2Br)c1N
(57) Cc1nc([N+](=O)[O-])c(Br)n1CC(=O)c1cccc([N+](=O)[O-])c1
(58) COc1ccc(CCNC(=O)c2ccc(Cl)c(S(=O)(=O)N(C)c3ccccc3)c2)cc1
(59) CCOc1cccc(C(=O)Nc2cc(-c3ccc(C)cc3)no2)c1
(60) O=C(NCc1ccccc1)c1nc2ccccc2s1

assay / entry,55,56,57,58,59,60
N370S GC mod,11%,.,1%,6%,.,10%
GCN5L2 inh,-2%,18%,-2%,-7%,0%,-17%

(61) COc1ccccc1-n1cnnc1SCC(=O)N1CCN(S(=O)(=O)c2ccccc2)CC1
(62) COc1ccccc1NC(=S)N1CCC(NC(=O)C23CC4CC(CC(C4)C2)C3)CC1
(63) COc1cccc(/C=C/C(=O)OCC(=O)Nc2cc(S(=O)(=O)N3CCOCC3)ccc2C)c1
(64) O=C(COC(=O)c1cc(=O)c2ccccc2o1)Nc1ccccc1F
(65) CCOc1ccc(N(CC(=O)NC(C)C)C(=O)CCC(=O)Nc2ccccn2)cc1
(66) CC(=O)c1ccc(NC(=O)CSc2nccn2CCc2ccccc2)cc1

assay / entry,61,62,63,64,65,66
N370S GC mod,-9%,-25%,10%,.,0%,?
GCN5L2 inh,-3%,-18%,-11%,-8%,-1%,1%

(67) COc1ccc(/C=N/NC(=S)Nc2c(C)n(C)n(-c3ccccc3)c2=O)cc1OC
(68) Cc1cc(NC(=O)COc2coc(CN3CCN(c4ccccc4F)CC3)cc2=O)no1
(69) Cc1ccc(S(=O)(=O)N(C)C)cc1NC(=O)c1cc(=O)c2ccccc2o1
(70) CCOC(=O)C1CCN(S(=O)(=O)c2cccc(-c3csc(C)n3)c2)CC1
(71) COc1ccc(C)cc1NC(=O)NCc1ccco1
(72) CC1=C(C(=O)N2CCOCC2)C(c2ccc(-c3ccccc3)cc2)NC(=S)N1 (stereo not drawn)

assay / entry,67,68,69,70,71,72
N370S GC mod,3%,1%,-4%,0%,2%,13%
GCN5L2 inh,-20%,-2%,-3%,-1%,-12%,-7%

(73) COc1ccc(N2CCN(C(=O)CSc3nnc(CNc4ccccc4)o3)CC2)cc1
(74) Clc1cccc(NCc2cn3cccnc3n2)c1
(75) O=C(OCc1cccc2ccccc12)C1CC(=O)N(c2ccccc2)C1 (stereo not drawn)
(76) Cc1nc(OCc2ccccc2)c2sc3nc4c(cc3c2n1)COC(C)(C)C4
(77) COc1cccc(CNC(=O)CCC2CCCN(C(=O)CCn3cncn3)C2)c1 (stereo not drawn)
(78) CCOc1ccc(NC(=O)CN(C)C(=O)c2cc([N+](=O)[O-])ccc2N2CCCCC2)cc1OCC

assay / entry,73,74,75,76,77,78
N370S GC mod,0%,2%,28%,1%,-9%,-10%
GCN5L2 inh,3%,0%,-7%,3%,-9%,-6%

(79) COc1ccc(C2CC(=O)C=C(NC3CCCC3)C2)cc1 (stereo not drawn)
(80) O=C(Nc1cccnc1)c1ccc(N2CCOCC2)c([N+](=O)[O-])c1
(81) CN(C)C(=O)CSc1nnc(CCCCCNC(=O)OC(C)(C)C)o1
(82) O=C(COc1ccc(S(=O)(=O)Nc2ccccc2)cc1)N1CCOCC1
(83) CN(Cc1cnn(C)c1)C(=O)C1CCC(=O)N(C2CCCCCC2)C1 (stereo not drawn)
(84) COc1ccc(C(=S)N2CCOCC2)cc1OC(=O)c1ccccc1

assay / entry,79,80,81,82,83,84
N370S GC mod,-3%,2%,0%,-1%,-1%,-7%
GCN5L2 inh,0%,-7%,-5%,-6%,?,-15%

(85) COc1ccc(CCC(=O)Nc2nnc(C(F)(F)F)s2)cc1
(86) Cc1c(C(=O)NCc2ccccn2)oc2ccc(S(=O)(=O)N3CCC4(CC3)OCCO4)cc12
(87) CC1CCN(S(=O)(=O)c2ccc3c(c2)oc(=O)n3CC(=O)O)CC1
(88) COc1ccc(C(=O)COC(=O)CCCC(=O)NC2CCCCC2)cc1
(89) CCCCCCCCN1N=N[C@H]2[C@H]1[C@@H]1C[C@H]2N(C(=O)OC(C)(C)C)O1

assay / entry,85,86,87,88,89
N370S GC mod,-17%,-3%,.,10%,.
GCN5L2 inh,-7%,-5%,2%,2%,-3%

High-throughput results deposited in PubChem by National Center for Advancing Translational Sciences (NCATS).
